MLL AF4-AF9 inh: inhibitors of AF4 peptide binding to AF9, primary screen, biochemical, AlphaScreen, biotin-AF4 peptide, FLAG-AF9, single point | Protein AF-9 (Homo sapiens), P42568 | AID 651704, 2012 | 0.47% of 350,000 active | inhibition, % at 10 µM;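 active = every replicate reaching a set inhibition limit, whatever the replicate mean, cut at about 25% in these data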;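 also: 0% = plate neutral control median and 100% = total signal loss; the record names both 10 and 1 µM as test concentration; the first replicate is given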
Target sequence (P42568 whole entry, looked up): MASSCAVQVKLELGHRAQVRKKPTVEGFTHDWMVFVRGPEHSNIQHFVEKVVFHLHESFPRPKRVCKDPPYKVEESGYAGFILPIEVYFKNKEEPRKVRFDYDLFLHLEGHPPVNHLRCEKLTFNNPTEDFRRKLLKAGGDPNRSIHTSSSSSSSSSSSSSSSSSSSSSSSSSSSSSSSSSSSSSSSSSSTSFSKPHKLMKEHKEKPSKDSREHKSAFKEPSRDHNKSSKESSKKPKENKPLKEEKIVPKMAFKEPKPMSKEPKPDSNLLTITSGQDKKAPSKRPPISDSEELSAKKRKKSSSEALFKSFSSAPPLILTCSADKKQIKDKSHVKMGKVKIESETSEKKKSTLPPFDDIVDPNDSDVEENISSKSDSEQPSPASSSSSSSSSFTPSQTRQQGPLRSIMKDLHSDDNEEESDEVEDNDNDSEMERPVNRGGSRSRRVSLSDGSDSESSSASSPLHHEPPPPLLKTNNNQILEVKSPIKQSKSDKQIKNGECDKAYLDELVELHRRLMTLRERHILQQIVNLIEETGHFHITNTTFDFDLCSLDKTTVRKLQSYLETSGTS
Vif TR-FRET: inhibitors of Vif binding to APOBEC3G peptide, primary screen, biochemical, TR-FRET, GST-Vif 1-94, biotin-A3G peptide, dose response retest (AID 1117319); Virion infectivity factor (Human immunodeficiency virus type 1 group M subtype B (isolate …; TR-FRET GST-Vif / biotin-A3G peptide binding; higher % means a stronger effect; test concentration not given here; strong numbers were not always called active; inhibition, %; hits with a dose series show IC50 in µM; 0.57% of 260,000 active;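 active = above the screen mean plus three standard deviations and confirmed in dose response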;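 also: Vif residues 1-94 fused to GST binding biotinylated APOBEC3G peptide 110-148; 0% = full assay without inhibitor and 100% = GST in place of GST-Vif; retest series ran down from 100 µM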
E coli growth: E. coli growth inhibition, primary screen, OD600. Escherichia coli growth, 23 h; hits give low values. OD600 absorbance (concentration not given with the values). 0.21% of 330,000 active;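 active = OD600 absorbance below the run mean of sample wells minus 3.6 SD, in any replicate, cut at about 0.56 in these data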;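 also: stock transfer was 300 nL into about 60 µL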
HNF4A DNA FP: change in binding of human HNF4A to DNA, primary screen, biochemical, fluorescence polarization, FITC-DNA; Hepatocyte nuclear factor 4-alpha (Homo sapiens), P41235; 1 h; activity change, % at 10 µM; 0.3% of 360,000 active; AID 1224865, 2016; in the data active = activity change above about 30%, passing the limit was not always enough;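 also: controls were the assay level and a saturating level of protein; the project sought stronger binding though the title names inhibitors; some compounds called inactive have numbers as strong as hits; positive values seem to mean higher polarization but the record does not say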
Target sequence (P41235 whole entry, looked up): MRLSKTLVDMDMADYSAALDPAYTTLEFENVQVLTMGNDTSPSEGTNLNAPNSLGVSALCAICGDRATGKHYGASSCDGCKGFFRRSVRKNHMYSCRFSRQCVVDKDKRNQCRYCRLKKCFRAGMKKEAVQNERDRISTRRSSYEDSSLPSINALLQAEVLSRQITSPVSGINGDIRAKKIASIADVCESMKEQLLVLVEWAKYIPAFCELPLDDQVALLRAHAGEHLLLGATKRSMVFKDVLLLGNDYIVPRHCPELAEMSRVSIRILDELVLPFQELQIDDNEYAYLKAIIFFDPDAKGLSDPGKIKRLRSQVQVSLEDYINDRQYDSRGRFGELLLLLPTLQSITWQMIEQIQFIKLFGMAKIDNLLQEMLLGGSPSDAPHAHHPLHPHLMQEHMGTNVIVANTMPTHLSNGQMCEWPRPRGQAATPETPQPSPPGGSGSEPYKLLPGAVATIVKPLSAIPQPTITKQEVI
FGF22 binding: binders of human FGF22 protein, primary screen, FGF22 synaptogenesis inhibitor project, biophysical, thermal shift, single point. recombinant FGF22 thermal shift, SYPRO orange fluorescence; percent of sucrose octasulfate shift, DMSO zero. calls only at 9.99 µM. 1.5% of 340,000 active;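 active = melting point raised past a set limit in the mean and every replicate; three in four hits are not shown here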
ALR H2O2 inh: inhibitors of human ALR sulfhydryl oxidase, primary screen, biochemical, H2O2 detection, HRP-luminol luminescence, single point; purified ALR, DTT oxidation; FAD-linked sulfhydryl oxidase ALR (Homo sapiens), P55789; 3.8% of 290,000 active; inhibition, % (test concentration not listed);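 active = mean and each replicate at 75% or more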;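 also: stock transfer was 7.5 nL into about 7.5 µL; 0% = neutral wells and 100% = wells with inactivated enzyme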
Ecoli rRNA inh: reduced GFP signal of wild-type E. coli, primary screen, bacterial rRNA inhibitor project, GFP/RFP fluorescence, OD600, single point. GFP signal change (wild-type ribosome), % (test concentration not listed). E. coli WT GFP vs humanized-ribosome RFP mutants, 24 h; hits give low values; DMSO median 0, no signal -100. AID 720706, 2013. 1.6% of 350,000 active;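 active = significant combined selectivity score with lowered wild-type GFP, culture density cut under 30%, mutant RFP and density less affected; inactive = any of these conditions unmet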; also: one replicate is shown; some compounds called inactive have numbers as strong as hits
Ecoli rRNA inh OD600: second read-out of Ecoli rRNA inh, no call of its own (marks repeat the call); OD600 change, %; measured here: OD600 growth;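 optical density of the mix in the first replicate; 0 = DMSO median and -100 = no signal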
Ecoli rRNA inh RFP: second read-out of Ecoli rRNA inh, no call of its own (marks repeat the call); RFP signal change, %; measured here: RFP humanized mutant strains;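 first replicate; 0 = DMSO median and -100 = no signal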
Starred values were filed as active, the others as inactive; i = inactive; · = not tested or not shown; + = active, no number. Not all compounds are listed; rates above refer to the full screens.

The opening 3 records (preview)
SMILES | MLL AF4-AF9 inh | Vif TR-FRET | E coli growth | HNF4A DNA FP | FGF22 binding | ALR H2O2 inh | Ecoli rRNA inh | Ecoli rRNA inh OD600 | Ecoli rRNA inh RFP
CCN(C[C@H]1N[C@@](C)(C(=O)OC)[C@H]2C(=O)N(Cc3ccccc3)C(=O)[C@@H]12)C(=O)Nc1ccc(Cl)cc1 | -2.8 | -5% | 0.69 | -4.3 | · | · | 8 | -3 | 2.7
COc1cccc(N(C(=O)c2snc(C(N)=O)c2N)C(C(=O)NCc2ccccc2)c2ccc(O)cc2)c1 (centres undefined) | 1.0 | · | 0.66 | -2.3 | i | · | -6 | -6 | 13
Cc1cccc(NC(=O)c2cc3c(=O)n4ccccc4nc3n(CC(C)C)c2=N)c1 | 1.3 | 13% | 0.71 | -2.1 | i | -6 | 12 | 8 | 14

The listing, repeating the preview:
SMILES | MLL AF4-AF9 inh | Vif TR-FRET | E coli growth | HNF4A DNA FP | FGF22 binding | ALR H2O2 inh | Ecoli rRNA inh | Ecoli rRNA inh OD600 | Ecoli rRNA inh RFP
CCN(C[C@H]1N[C@@](C)(C(=O)OC)[C@H]2C(=O)N(Cc3ccccc3)C(=O)[C@@H]12)C(=O)Nc1ccc(Cl)cc1 | -2.8 | -5% | 0.69 | -4.3 | · | · | 8 | -3 | 2.7
COc1cccc(N(C(=O)c2snc(C(N)=O)c2N)C(C(=O)NCc2ccccc2)c2ccc(O)cc2)c1 (centres undefined) | 1.0 | · | 0.66 | -2.3 | i | · | -6 | -6 | 13
Cc1cccc(NC(=O)c2cc3c(=O)n4ccccc4nc3n(CC(C)C)c2=N)c1 | 1.3 | 13% | 0.71 | -2.1 | i | -6 | 12 | 8 | 14
COCCCN1C(=O)/C(=C\c2cccs2)C(C(=O)OC)=C1C | 13 | 19% | 0.68 | -0.9 | i | · | 5 | 14 | -1.2
Nc1c(-c2cccs2)cnn1-c1nc(-c2ccc(F)cc2)cs1 | · | -8% | 0.74 | -1.0 | · | 6 | · | · | ·
CN(Cc1ccccc1)C(=O)c1ccccc1C(=O)O | -1.7 | 12% | 0.67 | -0.3 | i | -17 | 5 | 6 | 1.0
Cc1nc(-[n+]2nc(-c3ccncc3)nn2-c2ccccc2)sc1C | 22 | · | · | -4.4 | i | · | -33 | -74 | -26
CCC1CCCCN1CCCNC(=O)CCCOc1cc(=O)n(C)c2ccccc12 (centres undefined) | -0.2 | 2% | 0.7 | -4.5 | i | -15 | 6 | 4 | 11
C[C@@H]1CCCCO[C@H](CN(C)Cc2ccccc2)[C@H](C)CN([C@H](C)CO)C(=O)c2cc(NC(=O)Nc3ccc(C(F)(F)F)cc3)ccc2O1 | 0.0 | · | · | · | i | · | 1 | -8 | 3.3
C/C=C/C=N/Nc1nc(C)cc(=O)[nH]1 | -4.0 | -8% | · | -1.9 | i | 12 | 3 | 5 | -2.5
COC(=O)C1(CCSC)NC(c2ccc(OC)cc2OC)C2C(=O)N(c3cccc(C(C)=O)c3)C(=O)C21 (centres undefined) | 4.7 | -14% | 0.7 | -0.8 | i | 0 | 7 | 4 | -1.0
CCOC(=O)c1ccc(S(=O)(=O)NNC(=O)COc2ccccc2C)cc1 | -0.1 | 5% | 0.69 | 1.5 | i | -24 | · | · | ·
O=C(O)/C=C\c1ccccc1Oc1ccc(F)cc1 | -1.9 | 6% | 0.69 | 5.2 | i | 6 | -14 | -8 | 2.0
CC1(C(=O)NCCC#N)CCN1C(=O)CC(c1ccccc1)c1ccccc1 (centres undefined) | 1.8 | · | · | 1.7 | i | · | · | · | ·
CCC(CO)NCc1ccc(Br)cc1 (centres undefined) | -0.6 | -4% | 0.69 | 3.0 | i | -5 | 8 | 2 | 2.1
COCCNC(=O)CSc1c2c(nc3ccc(Cl)cc13)CCCC2 | -0.9 | -1% | 0.68 | -0.7 | i | 98* | -22 | -21 | -3.5
Cc1cccc(Cl)c1NC(=O)N(C)c1ccccc1 | 12 | · | · | · | i | · | 0 | 5 | 3.0
C[C@H]1CCCCO[C@@H](CN(C)C(=O)Nc2ccccc2)[C@@H](C)CN([C@@H](C)CO)C(=O)c2cc(NC(=O)Nc3ccc(C(F)(F)F)cc3)ccc2O1 | -7.9 | · | · | · | i | · | 3 | 3 | -0.9
CC(=O)c1cc(Cc2csc(C(C)=O)c2)cs1 | -43 | · | 0.67 | 4.0 | i | -8 | 1 | -6 | -12
Cc1cccc(NS(=O)(=O)c2ccc(OCC(=O)N3CCCC3)cc2)c1 | -0.1 | · | 0.69 | -0.7 | i | 5 | 15 | 12 | -1.0
Fc1cccc(Cc2noc(CN3CCCN(C4Cc5ccccc5C4)CC3)n2)c1 | 1.8 | 0% | 0.7 | 5.2 | i | -1 | 5 | 1 | 3.4
COc1ccc(CCNc2oc(Cc3cccc4ccccc34)nc2C#N)cc1OC | · | -1% | 0.71 | -0.2 | · | -14 | · | · | ·
Cc1onc(-c2ccccc2)c1C(=O)OCCOc1ccccc1F | -2.5 | · | 0.62 | 0.6 | i | · | -9 | -38 | -0.1
C[C@@H]1CN([C@H](C)CO)S(=O)(=O)c2ccc(C3=CCCCC3)cc2O[C@@H]1CN(C)C(=O)Cc1ccccc1 | 2.6 | · | · | · | i | · | -4 | -20 | 6.4
O=C(O)c1cc(N2CCCC2)ccn1 | 3.2 | 3% | · | -3.0 | i | · | 2 | -1 | 2.0
The list goes on:
SMILES | MLL AF4-AF9 inh | Vif TR-FRET | E coli growth | HNF4A DNA FP | FGF22 binding | ALR H2O2 inh | Ecoli rRNA inh | Ecoli rRNA inh OD600 | Ecoli rRNA inh RFP
Cc1ccc(C(=O)N2CCN(c3ncnc4c3cnn4-c3ccccc3)CC2)cc1 | · | -6% | 0.74 | 2.4 | · | -16 | · | · | ·
N#CC1c2ccccc2C=CN1C(=O)N(c1ccccc1)c1ccccc1 (centres undefined) | -2.7 | -3% | 0.7 | 0.9 | i | · | · | · | ·
Cc1cc(C)c(OCC(=O)N2CC=C(c3ccccc3)CC2)c(C)c1 | -1.7 | 2% | 0.69 | 1.6 | i | 3 | -42 | -67 | -2.7
CN1c2ccc(Br)cc2[C@H]2[C@H](CCN2S(=O)(=O)c2ccccc2)[C@@H]1CO | -0.4 | · | · | · | i | · | -54 | -74 | -14
Cc1ccc(-n2nnnc2SCC(=O)NCC2(N3CCCCC3)CCCCC2)c(C)c1 | 5.6 | · | 0.67 | 1.3 | i | · | 4 | -8 | 1.3
OC[C@H]1[C@@H](c2ccc(-c3cccc(F)c3)cc2)[C@H]2CN(Cc3cncnc3)CCCCN21 | 3.9 | · | · | · | i | · | -3 | 6 | -1.7
CCCNC(=O)C1(C)CCN(C(=O)Cc2ccc3ccccc3c2)C1 (centres undefined) | 0.3 | · | · | -2.4 | i | · | 3 | 7 | 0.1
O=C(/C=C/c1ccc(Cl)c(C(F)(F)F)c1)N1CCN(c2ccccn2)CC1 | -0.1 | · | 0.69 | 0.8 | i | -3 | -6 | 2 | -5.0
COc1cccc(N2CCN(C(=S)NCc3ccco3)CC2)c1 | · | -3% | 0.62 | 1.7 | · | 87* | · | · | ·
C[C@@H]1CCCCO[C@@H](CN(C)C(=O)Nc2ccc3c(c2)OCO3)[C@@H](C)CN([C@H](C)CO)C(=O)c2cc(NS(=O)(=O)c3cccs3)ccc2O1 | -0.8 | · | · | · | i | · | 3 | 3 | 0.3
Cc1ccc(S(=O)(=O)N2CCCOC2CNC(=O)C(=O)NCc2cccnc2)cc1 (centres undefined) | · | 7% | 0.73 | 2.3 | · | -24 | · | · | ·
COCCn1cc(C(=O)NCCN(C)C)c2c3ccccc3n(C)c2c1=O | -0.4 | 2% | 0.66 | 4.0 | i | -7 | 20 | 17 | 5.4
COc1nccc(C(F)(F)F)c1C(=O)Nc1ccc(Cl)cc1 | 8.4 | 1% | 0.72 | 0.3 | i | 7 | -13 | -3 | 5.5
CCCC(C(=O)Nc1nccs1)c1ccccc1 (centres undefined) | · | -3% | 0.77 | 0.1 | · | · | · | · | ·
COc1ccc2c3c([nH]c2c1)[C@H](CO)N(C(=O)Nc1ccc(F)cc1)CC31CN(C(=O)Nc2c(C)noc2C)C1 | 0.4 | · | · | · | i | · | -1 | 5 | 0.8
Cc1ccc(N2CCN(c3ccc(NC(=O)CCC(=O)O)cc3)CC2)cc1 | · | 15% | 0.68 | 5.9 | · | 64 | · | · | ·
CO[C@@H]1CN(C)C(=O)c2ccc(NC(=O)c3cnccn3)cc2OC[C@H](C)N(CC2CC2)C[C@@H]1C | -2.6 | · | · | · | i | · | 2 | 5 | 0.7
CC(=O)c1ccc(S(=O)(=O)N2CCN(CC(=O)Nc3ccc(Cl)c([N+](=O)[O-])c3)CC2)cc1 | 0.7 | 3% | 0.65 | -3.5 | + | · | -6 | -10 | 2.2
COC(=O)c1ccc(NC(=O)CSc2nccn2CCc2ccccc2)cc1 | · | 32% | 0.66 | -2.9 | · | 32 | · | · | ·
CC(=O)Cn1c(CN2CCCC2)nc2ccccc2c1=O | -0.3 | 6% | 0.72 | -2.3 | i | 2 | 10 | 10 | 0.1
CC(=O)NC1=NC(=O)C(C)S1 (centres undefined) | · | 12% | 0.76 | 0.0 | · | 1 | · | · | ·
CCOC(=O)c1c(NC(=O)CCl)sc(C(=O)N(CC)CC)c1C | · | 4% | 0.69 | 1.2 | · | 10 | · | · | ·
COc1ccc(CN(C)C[C@@H]2Oc3c(NC(=O)Nc4c(C)noc4C)cccc3C(=O)N([C@H](C)CO)C[C@@H]2C)cc1 | -1.7 | · | · | · | i | · | 4 | 10 | -1.0
CN1CCN(C(=O)C[C@H]2CC[C@H](NC(=O)Nc3ccccc3F)[C@@H](CO)O2)CC1 | -0.7 | · | · | · | i | · | 1 | 2 | -1.4
O=C(CNc1cccc(S(=O)(=O)N2CCCC2)c1)Nc1cccc(F)c1 | 4.8 | 1% | 0.67 | -6.9 | i | -2 | -5 | -3 | -1.6
Other compounds
SMILES | MLL AF4-AF9 inh | Vif TR-FRET | E coli growth | HNF4A DNA FP | FGF22 binding | ALR H2O2 inh | Ecoli rRNA inh | Ecoli rRNA inh OD600 | Ecoli rRNA inh RFP
C=CC(=O)NCC1OCCc2ccccc21 (centres undefined) | -0.3 | 2% | 0.71 | -1.4 | i | -18 | 12 | 3 | 0.5
COCC(=O)N1C[C@H](C)[C@@H](OC)CN(C)C(=O)c2ccc(NC(=O)c3cnccn3)cc2OC[C@H]1C | -1.6 | · | · | · | i | · | 1 | -1 | 1.2
Cc1cccc(C(=O)NNC(=O)CSc2nnc(C3CC3)n2C)c1 | -3.2 | · | 0.67 | 2.5 | i | -1 | 7 | 2 | -0.9
C[C@@H]1CN([C@H](C)CO)C(=O)c2cc(NS(=O)(=O)c3cn(C)cn3)ccc2O[C@@H]1CN(C)Cc1ccc(Oc2ccccc2)cc1 | 5.3 | · | · | · | i | · | 1 | -3 | 3.3
CC(C)C[C@H]1COc2ccc(Cl)cc2S(=O)(=O)N1C[C@H](NC(=O)OC(C)(C)C)C(C)C | -1.6 | · | · | · | i | · | -4 | 1 | -5.5
CC(C)c1ccc(-c2csc3nc[nH]c(=O)c23)cc1 | -13 | · | 0.68 | 6.2 | i | 1 | -19 | -23 | -3.0
CCCN(CC(=O)Nc1ccccc1C)C(=O)c1ccc(S(=O)(=O)N2CCCCCC2)cc1 | -0.2 | · | 0.74 | -1.8 | i | -2 | -2 | -2 | -0.3
Cc1cc(F)ccc1S(=O)(=O)Nc1ccccc1C(=O)NCc1ccccn1 | -2.4 | · | 0.7 | 0.7 | i | -1 | 0 | -6 | 0.3
